# Assay outcomes as filed in PubChem.
# STK33 kinase inh = inhibitors of purified STK33 kinase, primary screen, biochemical, ADP-Glo luminescence, homogeneous, cell-free | Serine/threonine-protein kinase 33 (Homo sapiens), Q9BYT3 | MBP phosphorylation | inhibition, % at 10 µM | 320,000 tested, 0.073% active;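 active = inhibition at or above 25%, using the most active replicate where run in duplicate; inactive = inhibition below 25%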
# Target sequence (Q9BYT3 whole entry, looked up): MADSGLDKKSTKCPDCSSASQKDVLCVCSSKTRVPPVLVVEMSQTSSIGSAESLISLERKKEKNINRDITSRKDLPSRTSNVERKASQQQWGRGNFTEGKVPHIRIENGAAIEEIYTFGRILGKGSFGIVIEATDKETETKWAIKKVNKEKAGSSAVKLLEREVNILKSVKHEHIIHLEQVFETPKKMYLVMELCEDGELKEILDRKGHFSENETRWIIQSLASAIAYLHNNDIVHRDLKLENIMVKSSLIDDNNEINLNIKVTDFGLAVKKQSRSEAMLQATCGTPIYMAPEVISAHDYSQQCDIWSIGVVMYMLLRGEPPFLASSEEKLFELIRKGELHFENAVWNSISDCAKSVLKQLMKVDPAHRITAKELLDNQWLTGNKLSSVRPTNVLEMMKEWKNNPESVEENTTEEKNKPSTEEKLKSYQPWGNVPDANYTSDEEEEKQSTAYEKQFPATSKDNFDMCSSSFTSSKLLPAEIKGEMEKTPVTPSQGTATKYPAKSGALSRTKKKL
# Numbers without * were called inactive. Only part of the results is shown, and most or all hits are left out here.
SMILES,STK33 kinase inh
CC(C)(C)c1ccc(C(=O)Nc2ccc(Cl)cc2)cc1,-2.4
Cc1ccnc(NS(=O)(=O)c2ccc(NC(=O)c3ccc(S(=O)(=O)N4CCOCC4)cc3)cc2)n1,-4.3
CC(C)CNC(=O)C1CCCN(C(=O)NCc2ccccc2)C1 (stereo not drawn),-0.2
COC(=O)c1ccc(CN2CCC(CO)(Cc3cccc(OC)c3)CC2)cc1,3.6
O=C(CC1CC2CCC1C2)OCC(=O)c1c[nH]c2ccccc12 (stereo not drawn),-1.9
CCc1cc(Cn2nc(-c3ccccc3)cc2C(=O)NCc2cccc(Br)c2)on1,0.5
CCOC(=O)NNc1ccc(C(F)(F)F)cn1,-0.3
Cc1ccc(C(=O)N2CCCCC2)cc1S(=O)(=O)N1CCOCC1,-1.3
O=S(=O)(NC1CC1)c1ccc(S(=O)(=O)N2CCC3(CC2)OCCO3)cc1,-1.4
Cc1ccc(S(=O)(=O)NCCC(=O)OCC(=O)Nc2cccc(S(=O)(=O)NC3=NCCCCC3)c2)cc1,-0.3
CCCc1cc(=O)oc2c(C)c(OCC(=O)Nc3ccc(CN4CCOCC4)cc3)ccc12,-1.3
O=[N+]([O-])c1cccc(C(=S)N2CCN(c3ccccc3)CC2)c1,-2.3
O=C(COC(=O)c1cc([N+](=O)[O-])ccc1N1CCOCC1)c1ccc(Br)cc1,-0.6
O=C1c2ccccc2N2C(=O)c3ccccc3C2N1O (stereo not drawn),9.6
CCN(CC)C(=N)/C(C#N)=N/Nc1ccccc1,-1.0
Cc1nn(Cc2ccccc2)c(C)c1NC(=O)CCCn1nc([N+](=O)[O-])c(Cl)c1C,-2.3
O=C(NCc1ccc(Cl)cc1)C1CCCN1C(=O)Nc1ccc(F)cc1 (stereo not drawn),-2.1
COc1ccc(Nc2nc(C)cc(C)c2C(N)=O)cc1,0.0
O=C(O)/C=C/c1cnc2ccccc2c1,-0.7
CCc1nnc(NC(=O)COc2ccc([N+](=O)[O-])cc2)s1,-1.2
COc1ccc(Cc2noc(-c3ccc([N+](=O)[O-])cc3)n2)cc1OC,1.5
CCOC(=O)c1[nH]c(C)c(C(=O)NC2CCCCC2)c1C,-0.1
COc1cc(-c2noc(C)c2C(=O)NCc2ccc(C)o2)cc(OC)c1OC,-0.5
CCN(CC)CCOc1ccccc1OC,-2.1
NC(=O)NC1NC(=O)NC1=O (stereo not drawn),1.0
COc1ccc(C(=O)COC(=O)c2ccccc2NS(=O)(=O)c2ccc(O)c([N+](=O)[O-])c2)cc1,-1.6
CC(/C=C1\SC(=O)N(CC(=O)Nc2ccc(O)cc2)C1=O)=C\c1ccccc1,-1.1
Cc1ccc(C(=O)NCCCNC(=O)Cc2ccccc2)cn1,-0.2
Cc1ccc(CS(=O)(=O)CCC(=O)NCCN2CCCCC2C)cc1 (stereo not drawn),-1.1
O=C(CCn1c(=S)oc2ccccc21)NC1CCCCCC1,-0.9
N#Cc1ccccc1/C=C/C(=O)N1CCOCC1,-1.1
CN(CC(=O)NCc1ccc2c(c1)OCO2)S(=O)(=O)c1ccc(F)cc1,-0.6
COc1ccc(CN2CCC(=O)N([C@H](CO)CC(C)C)CC2)cc1OC,-1.1
COc1ccc(NC(=O)CSc2nc3ccccc3nc2N2CCCC2)cc1,-1.3
CCN(CC(=O)NCc1ccc(Cl)cc1)C(=O)COc1ccc(Cl)cc1Br,-2.1
Cc1ccc(C(=O)NC2CCCCCC2)o1,-1.3
O=C(COc1ccc(Cl)cc1)NCCN1CCCCC1,-1.7
CN(C)c1ccc(/C=C(/NC(=O)c2ccccc2)C(=O)NCCN2CCOCC2)cc1,-0.8
N#CC1=C(N)N=C(SCc2cccc3ccccc23)C(C(N)=O)C12CCCCC2 (stereo not drawn),-2.6
O=C(CCN1CCOCC1)N1CCc2c([nH]c3ccccc23)C1c1cccc(Cl)c1 (stereo not drawn),0.1
COc1cccc(CC(NC(C)=O)C(=O)NC2CCN(c3c4c(nc5ncnn35)CCC4)CC2)c1OC (stereo not drawn),1.4
Oc1ccc(-c2c(-c3ccsc3)sc3ccccc23)cc1,0.1
S=c1[nH]ncn1/N=C/c1cccc(Oc2ccccc2)c1,-0.7
NC1=NC(=O)C2(COC(c3cccc([N+](=O)[O-])c3)OC2)S1 (stereo not drawn),-0.7
COc1cc(OC)cc(C(=O)OCc2ccc([N+](=O)[O-])cc2)c1,-0.4
COc1ccc(Cn2c(CO)cnc2SCC(=O)Nc2cccc(NC(C)=O)c2)cc1,-1.0
COc1ccc(-c2cn(/N=C/c3ccc(Cl)cc3Cl)c(N)n2)cc1,0.5
C(=N\n1cncn1)/c1ccc(N2CCOCC2)cc1,-0.2
O=C1c2ccccc2C(=O)N1CCOc1cccc(Br)c1,-0.1
C=CCn1c(SCc2cc(=O)n3cc(C)ccc3n2)nnc1-c1ccc(F)cc1,-1.9
O=c1c2[nH]c3ccc(F)cc3c2ncn1CCC1=CCCCC1,-1.6
O=C(NC1CCCCC1)N1CCCc2ccccc21,0.5
Oc1ccc(C[C@@H]2CNCCN2CC2CCCCC2)cc1,-0.4
O=C(CSc1nnc(-c2cccnc2)s1)Nc1ccccc1,0.8
O=C(/C=C/c1ccco1)N1CCN(C/C=C/c2ccccc2)CC1,0.7
O=C(Nc1ncc(C(F)(F)F)cc1Cl)C1COc2ccccc2O1 (stereo not drawn),-1.2
CCOC(=O)C1CCCN(C(=O)Cn2cccc2C(=O)c2ccccc2)C1 (stereo not drawn),0.8
COC(=O)c1ccc(COC(=O)c2cc3ccccc3oc2=O)cc1,-1.6
CCN(CC)c1nc(N(CC)CC)[nH]c(=O)n1,-0.3
CCN1CCN(c2ccc(S(=O)(=O)N3CCCCC3)cc2NC(=O)c2ccc(C)o2)CC1,-0.8
# (more compounds)
SMILES,STK33 kinase inh
COc1ccc(-c2ccc3sc4ccccc4c(=O)c3c2)cn1,0.3
Cn1nc(C(F)(F)F)c(-c2ccc(Br)cc2)c1NC(=O)c1cccnc1,0.5
O=C(CN1CCN(C2CCCCC2)CC1)Nc1ccc(Br)cc1,-1.1
O=C(CSCc1ccco1)c1cccs1,0.7
C/C(=N\NC(=O)C1(C)CC1(Br)Br)c1ccc(NC(=O)C2CCC2)cc1 (stereo not drawn),-0.7
COc1cccc(C(=O)N2CCN(Cc3ccccc3C(F)(F)F)CC2)c1,-1.1
O=C(O)CNS(=O)(=O)c1cc(Cl)c(Cl)cc1Cl,1.8
COc1cc(C(CC(=O)Nc2ccc(Cl)cn2)N2Cc3ccccc3C2=O)cc(OC)c1OC (stereo not drawn),1.0
CNC(=O)CCn1nc(-c2ccccc2)c2ccccc2c1=O,-5.7
O=c1n(CCCN2CCN(c3cccc(Cl)c3)CC2)nc2ccccn12,0.7
CCCCc1c(C)nc(N)[nH]c1=O,-0.6
CN(C)n1cnc2ccsc2c1=O,-2.7
CCN(CC)S(=O)(=O)c1cccc(-c2nnc(C(=O)c3ccc(C(F)(F)F)cc3)o2)c1,4.1
Cc1ccc2c(c1)C1CN(C)CCC1N2C(=S)Nc1ccc(Cl)cc1Cl (stereo not drawn),-0.3
C=CCn1c(SCC(=O)c2cc(C)n(CC3CCCO3)c2C)nnc1-c1ccccc1 (stereo not drawn),-1.2
Cc1ccc(N=c2c([N+](=O)[O-])nn(-c3ccc4c(c3)OCCO4)n2O)c(Cl)c1,0.1
COc1ccc(-n2c(O)c(Cc3ccccc3)c(=O)n3nc(-c4ccccc4)c(=O)cc23)cc1,-2.2
CCCCc1ccc(NC(=S)N2CCN(c3ncccn3)CC2)cc1,-0.6
CC(C)c1cc(C(N)=O)c(NC(=O)c2cccc(COc3ccc(Br)cc3)c2)s1,0.4
Cc1ccc(C(C(=O)NC(C)(C)C)N(Cc2ccco2)C(=O)Cn2nnc(-c3cccs3)n2)cc1 (stereo not drawn),-1.2
O=C(CCCC(=O)NCc1ccc(F)cc1)NCc1ccc(F)cc1,0.7
CN1CCN(c2ccc([N+](=O)[O-])cc2NC(=O)c2ccccc2Cl)CC1,1.1
CCOC(=O)c1[nH]c2ccc(OC)cc2c1NC(=O)CCN1CCSCC1,-0.4
O=C(/C=C/c1ccc(Cl)cc1)NCc1ccncc1,-2.0
O=C(NCC(c1ccco1)N1CCCCC1)c1ccc(S(=O)(=O)Nc2ccccc2Cl)cc1 (stereo not drawn),0.8
Cc1cc(C)n(-c2ccc(C(=O)OCC(=O)N3CCN(c4ccccc4)CC3)cc2)n1,0.6
COc1ccc(-n2ncc(C(C)NS(=O)(=O)c3ccc(C)s3)c2C)cc1 (stereo not drawn),0.5
CCn1cc(C(=O)NCCc2ccc(OC)c(OC)c2)c(=O)c2cc(S(=O)(=O)N3CCOCC3)ccc21,-0.9
CCn1ncc(Br)c1C(=O)Nc1ccn(C23CC4CC(CC(C4)C2)C3)n1,0.6
CC1=C(C(=O)OCc2ccccc2)C(c2ccc(Br)cc2)NC(=O)N1CCCC(=O)O (stereo not drawn),0.0
COc1ccccc1NS(=O)(=O)c1cc(NC(=O)c2ccco2)ccc1N1CCOCC1,-0.3
CCc1c(C)nc2ncnn2c1NCCc1ccccc1,-0.8
CCN(CC(=O)Nc1c(F)cccc1F)C(=O)c1ccc(S(=O)(=O)N2CCCCC2)cc1,2.0
N=c1ccn(Cc2ccc([N+](=O)[O-])cc2)cc1,-0.9
O=C(NCc1cccnc1)C1c2ccccc2C(=O)N1Cc1ccccc1 (stereo not drawn),0.3
C=CCn1c(C(CC)CC)nc2ccccc21,0.3
O=C(Cn1c(=O)c2c3c(sc2n(Cc2ccccc2)c1=O)CCCC3)NCCO,0.9
CCOc1ccc(N(CC(=O)O)S(=O)(=O)c2cccnc2)cc1,-0.5
CCOc1ncccc1C(=O)Nc1ccc(Cl)c(S(=O)(=O)N2CCCC2)c1,-1.1
Cn1cnc([N+](=O)[O-])c1SCCO,-0.4

# Looked up by structure from above:
SMILES,STK33 kinase inh
CCOc1ccc(N(CC(=O)O)S(=O)(=O)c2cccnc2)cc1,-0.5
CCn1ncc(Br)c1C(=O)Nc1ccn(C23CC4CC(CC(C4)C2)C3)n1,0.6
C=CCn1c(C(CC)CC)nc2ccccc21,0.3
CCOc1ncccc1C(=O)Nc1ccc(Cl)c(S(=O)(=O)N2CCCC2)c1,-1.1
CC1=C(C(=O)OCc2ccccc2)C(c2ccc(Br)cc2)NC(=O)N1CCCC(=O)O (stereo not drawn),0.0

# (further entries)
SMILES,STK33 kinase inh
CCS(=O)(=O)Nc1cccc(C2=NN(S(=O)(=O)c3ccc(C)cc3)C(c3cccs3)C2)c1 (stereo not drawn),-0.1
CCCCCCc1ccc(N2C[C@H](CCCCC)[C@@H](CC(=O)NCc3ccccc3)C2=O)cc1,-0.4
CCOCC(=O)Nc1cc(Cl)c(OC)cc1OC,0.1
O=C(/C=C1\NC2(CCCC2)Cc2ccccc21)N1CCOCC1,-1.9
CC(C)CN(C(=O)COC(=O)c1cccc2ccccc12)c1c(N)n(Cc2ccccc2)c(=O)[nH]c1=O,-1.5
COc1cc(CNc2ccc3c(c2)CCC3)cc(OC)c1O,-2.5
CCOC(=O)CCN,-1.0
Cc1ccc(NC(=O)C2CCCN(C(=O)c3ccc(Cl)cc3)C2)c(C)c1 (stereo not drawn),-0.5

# An excerpt from above in order of molar mass, rising.
SMILES,STK33 kinase inh
CCOC(=O)CCN,-1.0
Cn1cnc([N+](=O)[O-])c1SCCO,-0.4
C=CCn1c(C(CC)CC)nc2ccccc21,0.3
N=c1ccn(Cc2ccc([N+](=O)[O-])cc2)cc1,-0.9
O=C(/C=C/c1ccc(Cl)cc1)NCc1ccncc1,-2.0
CCOCC(=O)Nc1cc(Cl)c(OC)cc1OC,0.1
COc1cc(CNc2ccc3c(c2)CCC3)cc(OC)c1O,-2.5
O=C(/C=C1\NC2(CCCC2)Cc2ccccc21)N1CCOCC1,-1.9
CCOc1ccc(N(CC(=O)O)S(=O)(=O)c2cccnc2)cc1,-0.5
O=C(CCCC(=O)NCc1ccc(F)cc1)NCc1ccc(F)cc1,0.7
O=C(NCc1cccnc1)C1c2ccccc2C(=O)N1Cc1ccccc1 (stereo not drawn),0.3
CN1CCN(c2ccc([N+](=O)[O-])cc2NC(=O)c2ccccc2Cl)CC1,1.1
CCOC(=O)c1[nH]c2ccc(OC)cc2c1NC(=O)CCN1CCSCC1,-0.4
COc1ccc(-n2ncc(C(C)NS(=O)(=O)c3ccc(C)s3)c2C)cc1 (stereo not drawn),0.5
CCOc1ncccc1C(=O)Nc1ccc(Cl)c(S(=O)(=O)N2CCCC2)c1,-1.1
O=C(Cn1c(=O)c2c3c(sc2n(Cc2ccccc2)c1=O)CCCC3)NCCO,0.9
CCn1ncc(Br)c1C(=O)Nc1ccn(C23CC4CC(CC(C4)C2)C3)n1,0.6
COc1ccccc1NS(=O)(=O)c1cc(NC(=O)c2ccco2)ccc1N1CCOCC1,-0.3
CCCCCCc1ccc(N2C[C@H](CCCCC)[C@@H](CC(=O)NCc3ccccc3)C2=O)cc1,-0.4
CCN(CC(=O)Nc1c(F)cccc1F)C(=O)c1ccc(S(=O)(=O)N2CCCCC2)cc1,2.0
CC1=C(C(=O)OCc2ccccc2)C(c2ccc(Br)cc2)NC(=O)N1CCCC(=O)O (stereo not drawn),0.0
O=C(NCC(c1ccco1)N1CCCCC1)c1ccc(S(=O)(=O)Nc2ccccc2Cl)cc1 (stereo not drawn),0.8
CCS(=O)(=O)Nc1cccc(C2=NN(S(=O)(=O)c3ccc(C)cc3)C(c3cccs3)C2)c1 (stereo not drawn),-0.1
Cc1ccc(C(C(=O)NC(C)(C)C)N(Cc2ccco2)C(=O)Cn2nnc(-c3cccs3)n2)cc1 (stereo not drawn),-1.2
CC(C)CN(C(=O)COC(=O)c1cccc2ccccc12)c1c(N)n(Cc2ccccc2)c(=O)[nH]c1=O,-1.5
CCn1cc(C(=O)NCCc2ccc(OC)c(OC)c2)c(=O)c2cc(S(=O)(=O)N3CCOCC3)ccc21,-0.9
